Source: PubChem (several laboratories)
Env fusion inh: blocks HIV Env-driven cell-cell fusion; HeLa-JRFL Env/CEM21 cell fusion, luciferase; inhibition, % at 12.3 µM; actives 1.1% (n = 360,000); AID 651610;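 active means mean replicate inhibition score of at least 50 and every replicate individually at or above 50; inconclusive means only one of the two criteria met; inactive means mean below 50 and not all replicates reaching 50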;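 further: 0% = plate neutral controls and 100% = maraviroc near 300 nM; one replicate is shown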
MT1-MMP act inh: inhibitors of human MT1-MMP activation | HT1080 RFP-PRO-GFP cells, GFP/RFP ratio fluorescence, overnight; percent of plate control window, DMSO zero | GFP/RFP ratio change, % at 20 µM | actives 0.061% (n = 360,000) | AID 651647 | P50281;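 active means GFP/RFP ratio change of at least 30% with cell ATP level not reduced by more than half and red fluorescence within 50% of control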; further: strong numbers were not always called active
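Assay system: HT1080 cells carrying an RFP-PRO-GFP reporter | Dosing: Single dose of 20 µM compound, 1% DMSO final | Incubation: Cells overnight before dosing, compound overnight, 37 °C, 5% CO2 | Evaluation: GFP/RFP fluorescence ratio | Control set: DMSO and RFP-L50D-GFP cell wells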
MT1-MMP act inh RFP: second read-out of MT1-MMP act inh, no call of its own (marks repeat the call); RFP signal change, %; measured here: RFP expression control read;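 0 = vehicle wells; hits needed this value within 50% of zero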
* hit, by the source's call; ? = inconclusive. Not all compounds are listed (hit frequency here may not be typical).

Every second line gives: Env fusion inh	MT1-MMP act inh	MT1-MMP act inh RFP
> CC(C(=O)NC1CCCC1)n1c(-c2ccccn2)nc2ccccc21 (stereo not given)
    -14	4	4
> CCOC(=O)[C@]12CCCC=C1N(Cc1ccc3c(c1)OCO3)C(=O)[C@H](CC(=O)NCc1cccc3ccccc13)C2
    0	-2	-13
> CCOC(=O)[C@]12CCC=C1N(Cc1ccccc1)C(=O)[C@H](CC(=O)NCc1cccc3ccccc13)C2
    12	0	-6
> Nc1[nH]c(C(=O)c2ccccc2)c(-c2ccc(F)cc2)c1C(=O)NCc1ccccc1
    -60	2	3
> CCOc1cc(-c2ccccc2)nc2c1CN(S(=O)(=O)c1ccc(C)cc1)C(c1cccc(Cl)c1)C2 (stereo not given)
    18	-6	-10
> CCCCCCn1cc(CN2CC(N3CCN(C4CCN(C)CC4)CC3)CS2(=O)=O)nn1 (stereo not given)
    18	3	5
> Nc1sccc1C(=O)NCc1ccccc1
    -29	2	25
> CSc1cnnc2ccccc12
    -5	0	3
> Cc1ccc([C@H]2C[C@H](O)[C@@H](n3cc(C4CC4)nn3)CN2C(=O)c2cccs2)cc1
    -66	2	3
> COC(=O)[C@@]12C[C@@H](CC(=O)NCc3cccc4ccccc34)C(=O)N(Cc3ccco3)C1=CCC(C)(C)C2
    -1	-2	-11

Single records, from the list above. Values in the order: Env fusion inh | MT1-MMP act inh | MT1-MMP act inh RFP
Profile of CCOC(=O)[C@]12CCCC=C1N(Cc1ccc3c(c1)OCO3)C(=O)[C@H](CC(=O)NCc1cccc3ccccc13)C2 : 0 | -2 | -13
Profile of Nc1[nH]c(C(=O)c2ccccc2)c(-c2ccc(F)cc2)c1C(=O)NCc1ccccc1 : -60 | 2 | 3
Profile of CSc1cnnc2ccccc12 : -5 | 0 | 3
Profile of Cc1ccc([C@H]2C[C@H](O)[C@@H](n3cc(C4CC4)nn3)CN2C(=O)c2cccs2)cc1 : -66 | 2 | 3
Profile of CCCCCCn1cc(CN2CC(N3CCN(C4CCN(C)CC4)CC3)CS2(=O)=O)nn1 (stereo not given) : 18 | 3 | 5

(listing goes on)
Every second line gives: Env fusion inh	MT1-MMP act inh	MT1-MMP act inh RFP
> CCCCNC(=O)C[C@@H]1C[C@@]2(C(=O)OCC)CCCC=C2N(Cc2ccco2)C1=O
    -34	4	4
> CC[C@@H]1Cc2[nH][nH]c(=O)c2[C@H](CC(C)C)O1
    12	4	3
> O=C(NC1CCCC1)C(C1CC1)n1c(-c2ccnc3ccccc23)nc2ccccc21 (stereo not given)
    -22	-5	-3
> CCOC(=O)[C@]12CCC=C1N(Cc1ccccc1)C(=O)[C@H](CC(=O)NCCCCc1ccccc1)C2
    -54	4	-4
> CCCCOCCCNC(=O)C[C@@H]1C[C@@]2(C(=O)OCC)CCC=C2N(Cc2ccc(Cl)cc2Cl)C1=O
    11	-3	-12
> CC(=O)N[C@@H](Cc1c[nH]c2ccccc12)C(=O)OCC(=O)Nc1cc(C)on1
    -12	0	2
> Cn1c(=O)c2[nH]c(C3CC4CCC3C4)nc2n(C)c1=O (stereo not given)
    27	-4	-1
> COc1ccc(Cl)cc1NC(=O)c1cccc(-n2cnnn2)c1
    -53	2	2
> NC(=O)c1nccc2ccccc12
    11	0	1
> COc1ccc(S(=O)(=O)N2CCC[C@H]2C(=O)N2CCC[C@H]2C(=O)N[C@H](C)c2ccccc2)cc1C
    -13	-1	1
> CCc1nc2ccccc2c(C(=O)OCC(=O)NC2CCCC2)c1C
    14	1	3
> CC(=O)Nc1cncc(-c2cccc(S(C)(=O)=O)c2)n1
    4	1	5
> c1ccc2c(c1)ccn1c(Cc3ccsc3)c(C3CCCCC3)nc21
    16	-8	-5
> O=C1NC[C@H](CCCCN2C[C@H](Cc3ccc(O)cc3)N(CCc3ccccc3)C(=O)C2=O)N(Cc2ccccc2)C1=O
    11	2	7
> COC(=O)[C@]12CCCCC=C1N(CCC1=CCCCC1)C(=O)[C@H](CC(=O)N1CCSCC1)C2
    -227	-3	-3
> O=C1c2ccccc2C(=O)N1OCCCN1C(=O)c2ccccc2S1(=O)=O
    25	4	3
> N#CC1(C(N)=O)OC12CCS(=O)(=O)c1ccccc12 (stereo not given)
    -1	1	1
> COC(=O)[C@]12CCCCC=C1N(Cc1ccccc1)C(=O)[C@H](CC(=O)NCCC(C)C)C2
    10	2	-2
> CCN(CC)c1ccc(C(=C2C=CC(=[N+](CC)CC)C=C2)c2ccccc2)cc1
    81*	-34	-40
> COc1ccc(N2CCN(C(=O)[C@H](C)N3C(=O)C4CC=CCC4C3=O)CC2)cc1 (stereo not given in full)
    -4	0	1
> O=C(Cc1ccc([N+](=O)[O-])cc1)c1ccccc1
    -19	-2	0
> CCCCCCCCCCCC1N=C(N)NC(CCCO)=C1C(=O)OC (stereo not given)
    1	-8	-16
> COc1ccc(Cl)cc1NC(=O)c1cccc([N+](=O)[O-])c1O
    2	27	-23
> COC(=O)C[C@@H]1C=C[C@H](NC(=O)Nc2cc(F)ccc2F)[C@@H](CO)O1
    13	2	4
> O=C(Nc1ccc2ccccc2c1)OC1CCS(=O)(=O)C1 (stereo not given)
    -190	12	5
> Clc1ccc2c(SCC3CO3)c3ccccc3nc2c1 (stereo not given)
    -13	0	-11
> OCCN1CCN(c2ncnc3c2ncn3[C@H]2CN(Cc3cccnc3)C[C@@H](CO)O2)CC1
    -19	6	9
> Cc1cccc(C)c1NC(=O)CN1CCCC1
    -1	0	0
> COC(=O)C[C@@H]1C=C[C@@H](NS(=O)(=O)c2ccccc2OC)[C@@H](CO)O1
    -3	-2	4
> CC(C)(C)NC(=O)C1c2ccccc2OCC(=O)N1Cc1ccco1 (stereo not given)
    ?	3	4
> COc1ccc(C(C(=O)NC2CCCCC2)n2c(=O)c(-c3cc4ccccc4[nH]3)nc3ccccc32)cc1 (stereo not given)
    13	-14	-10
> CCOC(=O)[C@]12CCC=C1N(Cc1ccco1)C(=O)[C@H](CC(=O)N1CCN(C(=O)c3ccco3)CC1)C2
    0	-1	4
> Cc1cccc(-c2cnc(C(O)c3ccc(F)c(C)c3)[nH]2)c1 (stereo not given)
    -18	8	1
> O=C(O)CCC(=O)c1ccc(C2CCCCCC2)cc1
    30	5	6
> CCOC(=O)[C@]12CCC=C1N(CCC1=CCCCC1)C(=O)[C@H](CC(=O)NCCCCc1ccccc1)C2
    -26	2	-4
> Cc1cccc(C)c1-n1nnnc1C1c2ccccc2C(=O)N1CCCN1CCOCC1 (stereo not given)
    -2	2	5
> COc1ccc(C2=Nc3ccccc3N(C(=O)c3ccc(C(F)(F)F)cc3)C2C(=O)NCc2ccccc2)cc1 (stereo not given)
    -12	-14	-19
> Cc1nn(-c2ccccc2)c(Cl)c1C(=O)OCC(=O)NCCc1ccc(S(N)(=O)=O)cc1
    2	3	0
> O=C(NCc1ccc(F)cc1F)[C@@H]1CCCN1C(=O)[C@@H]1CCCN1C(=O)c1ccccc1
    17	0	2
> COc1cc(OC)cc(C2=Cc3ccccc3C(CC(C)=O)N2c2ccc(-c3cccs3)cc2)c1 (stereo not given)
    17	-4	-9

3 compounds already listed, sorted by heavy-atom count, highest first:
Every second line gives: Env fusion inh	MT1-MMP act inh	MT1-MMP act inh RFP
> CCOC(=O)[C@]12CCC=C1N(CCC1=CCCCC1)C(=O)[C@H](CC(=O)NCCCCc1ccccc1)C2
    -26	2	-4
> COc1cc(OC)cc(C2=Cc3ccccc3C(CC(C)=O)N2c2ccc(-c3cccs3)cc2)c1 (stereo not given)
    17	-4	-9
> Cc1cccc(C)c1-n1nnnc1C1c2ccccc2C(=O)N1CCCN1CCOCC1 (stereo not given)
    -2	2	5

The list goes on.
Every second line gives: Env fusion inh	MT1-MMP act inh	MT1-MMP act inh RFP
> N#Cc1ccccc1OCCCN1CCC(C(O)(c2ccccc2)c2ccccc2)CC1
    -19	5	2
> COc1ccc(/C=C2/CCCC(CN(C)C)C2=O)cc1 (stereo not given)
    9	0	0
> Nc1[nH]c(C(=O)c2ccccc2)c(-c2ccc(Cl)cc2Cl)c1C(=O)NCCc1c[nH]c2ccccc12
    -215	-1	-9
> O=C1Cc2c(-c3ccccc3)cc(-c3cccc(Cl)c3)nc2-c2ccccc2N1
    -3	-7	-7
> CCCCCc1c(-c2ccc(OC)cc2)ncn1CCc1ccccc1OC
    62*	11	-28
> COc1ccc(CN2C(=O)CN(S(C)(=O)=O)CC2(C)C(=O)NC(C)C)cc1 (stereo not given)
    0	3	2
> CC(=O)OCC1OC(n2c3c(cc(C#N)c2=S)CCCC3)C(OC(C)=O)C(OC(C)=O)C1OC(C)=O (stereo not given)
    -2	6	-3
> CCOc1cc(C=NN=C2c3ccccc3-c3ccccc32)ccc1O
    -13	12	0
> CC(C)(C)c1ccc(SC2=C[C@@]3(O)CC[C@@H](O)[C@@](Sc4ccc(C(C)(C)C)cc4)(C2=O)[C@H]3O)cc1
    34	-5	-36
> COc1ccc(CCNC(=O)c2ccc(CSc3ccc(Cl)cc3)o2)cc1OC
    38	10	-31
> Cc1cc2nc(-c3ccco3)c(Cc3ccccc3C(F)(F)F)n2c(C)c1Br
    -4	-3	-8
> COc1ccc(-c2oc3c(c2C(=O)OCCO)C(OCCCO)CCC3)cc1 (stereo not given)
    11	5	4
> O=C(CCN1CCN(c2ccccc2)CC1)NNC(=O)Cc1ccc(Br)cc1
    4	1	1
> COC(=O)c1ccc(OCC(=O)NC2CCCCCCC2)cc1
    -5	-2	1
> Cc1ccn(CC(=O)NC2CCCN(Cc3ccccc3F)C2)n1 (stereo not given)
    1	-1	2
> CCOC(=O)[C@]12CCC=C1N(Cc1ccc3c(c1)OCO3)C(=O)[C@H](CC(=O)NCC1CCCCC1)C2
    1	-4	-6
> CCCCc1c(-c2ccc(OC)cc2)ncn1CCc1ccccc1OC
    10	8	-32
> c1ccc(CCc2cccnc2)cc1
    9	1	5
> Cc1ccc(S(=O)(=O)Nc2ccc(F)c(F)c2O)cc1
    -7	2	5
> O=c1[nH][nH]c2c1[C@H](c1ccc(F)cc1)O[C@H](CCC(F)(F)F)C2
    5	1	6
> COc1ccccc1OCCCN1CCC(C(O)(c2ccccc2)c2ccccc2)CC1
    -3	2	0
> O=C(NCC1CCN(Cc2ccccc2)CC1)[C@H]1O[C@@H](n2ccc(=O)[nH]c2=O)[C@H](O)[C@@H]1O
    -1	0	8
> O=C1Nc2ccccc2N(C(=O)c2ccc3ccccc3c2)C1c1nc2ccccc2[nH]1 (stereo not given)
    -127	-3	-11
